Compound activity: PubChem BioAssay, National Center for Advancing Translational Sciences (NCATS)
TRPML1 blocker = qHTS for Inhibitors of the Human Mucolipin Transient Receptor Potential 1 (TRPML1) | 0.02% of 390,000 active | AID 624415, 2012 | activity change, negative = inhibition, % (test concentration not listed) | TRPML1-inducible cells, Ca2+ dye fluorescence, FDSS; active compounds read low; inhibition of EC80 agonist-evoked calcium signal; in the data active means activity change below about -50%; inconclusive means about -30% to -50%; inactive means above about -30%;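 further: stimulus is agonist 54-4 at its EC80 concentration; on the % scale 0 is the no-effect control and ±100 the full control effect; compound concentration not given in the record; the text of the record puts the active cut at -80%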
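Tet-induced TRPML1-DL cells loaded with Ca8 no-wash calcium dye were read kinetically on FDSS. Compound addition was followed by EC80 agonist 54-4 (4 uM final); inhibition was read over 110 s.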
Menin-MLL FL inh = qHTS Assay for Inhibitors Targeting the Menin-MLL Interaction in MLL Related Leukemias: Competition With Fluorescein Labeled MLL-derived Peptide; 290,000 tested, under 10 active; Fluorescence polarization, fluorescein-MLL peptide displacement from menin; FP activity change, % at 61.4 µM; inconclusive = falling polarisation curve, or a change in total fluorescence; inactive = total fluorescence flat and polarisation flat or rising; no compound was filed as active; the % refers to the polarisation; negative = inhibition;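 further: % of control where 0% means no effect; inhibitors lower the polarisation; unlabelled MLL peptide was the positive control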
TRPV1 PAM = HTS Assay for Compounds that Act as Potentiators of the Vanilloid Receptor 1. Transient receptor potential cation channel subfamily V member 1 (Homo sapiens), Q8NER1. TRPV1-expressing cells, Fluo-8 calcium influx, capsaicin EC20 potentiation; host cell line not named in the record; control for the full effect not named in the record. potentiation, % at 8.33 µM. 0.02% of 320,000 active. AID 540277, 2011; active means potentiation above 80%; inconclusive means 30% to 80%; inactive means below 30%; further: 0% is about no effect
Target sequence (Q8NER1 whole entry, looked up): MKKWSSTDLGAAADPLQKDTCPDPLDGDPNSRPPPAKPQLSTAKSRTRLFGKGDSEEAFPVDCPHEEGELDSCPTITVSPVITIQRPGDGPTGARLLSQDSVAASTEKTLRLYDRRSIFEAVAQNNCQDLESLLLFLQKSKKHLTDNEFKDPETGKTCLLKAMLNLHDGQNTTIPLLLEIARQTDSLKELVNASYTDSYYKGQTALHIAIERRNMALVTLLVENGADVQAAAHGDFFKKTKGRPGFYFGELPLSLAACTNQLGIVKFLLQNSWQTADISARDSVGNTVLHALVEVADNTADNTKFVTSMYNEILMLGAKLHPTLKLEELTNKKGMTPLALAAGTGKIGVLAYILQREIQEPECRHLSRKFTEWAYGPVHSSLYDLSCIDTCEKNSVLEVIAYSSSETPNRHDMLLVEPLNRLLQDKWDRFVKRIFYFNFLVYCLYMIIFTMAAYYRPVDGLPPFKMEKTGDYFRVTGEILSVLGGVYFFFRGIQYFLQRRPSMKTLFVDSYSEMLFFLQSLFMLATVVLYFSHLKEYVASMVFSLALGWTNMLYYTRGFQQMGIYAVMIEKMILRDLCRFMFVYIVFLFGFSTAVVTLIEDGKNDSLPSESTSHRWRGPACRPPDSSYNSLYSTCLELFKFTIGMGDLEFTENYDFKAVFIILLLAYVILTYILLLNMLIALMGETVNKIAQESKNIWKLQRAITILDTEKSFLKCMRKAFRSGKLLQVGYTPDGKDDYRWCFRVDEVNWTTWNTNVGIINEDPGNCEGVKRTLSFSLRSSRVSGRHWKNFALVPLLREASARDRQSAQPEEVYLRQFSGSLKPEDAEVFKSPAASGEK
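Cells expressing TRPV1 were dye-loaded with Fluo-8 and read kinetically: 10 s baseline, 3 min after compound (agonist portion), then 2 min after EC20 capsaicin (allosteric enhancer portion). Calcium-bound dye fluorescence at 480/520 nm.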
ClpP mod = qHTS Assay for Activators of ClpP; ATP-dependent Clp protease proteolytic subunit (Bacillus subtilis (strain 168)), P80244; Potency, µM (titrated, usually from 57.5 µM), for inactives: top-dose activity change, negative = active; AID 651965, 2013; purified B. subtilis ClpP, FRET peptide cleavage, 20 min; 1.9% of 340,000 active; active = well fitted falling curve with a large enough effect; inconclusive = small, poorly fitted or top-dose-only effect; inactive = no such curve, though single readings can be large or run the other way; further: potency means the concentration at half of the fitted maximal effect; the source files actives as falling curves though it sought activators and does not explain the sign; nearly all actives have a fitted effect of over 65% in size; many hits overshoot -100%
Target sequence (P80244 whole entry, looked up): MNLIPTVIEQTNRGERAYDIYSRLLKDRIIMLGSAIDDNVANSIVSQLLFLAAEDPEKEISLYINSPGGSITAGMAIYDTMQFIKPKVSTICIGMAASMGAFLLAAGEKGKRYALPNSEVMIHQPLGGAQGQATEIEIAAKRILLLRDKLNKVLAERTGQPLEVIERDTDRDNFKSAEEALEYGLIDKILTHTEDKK
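Buffer: 100 mM Tris/HCl pH8, 100 mM KCl, 0.05% low protease BSA, 2.5% glycerol, 0.01% Tween-20. ClpP 10 microg/mL final; 20 min RT; delta FRET normalized to ADEP and DMSO controls.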
gsp ag = qHTS for Agonist of gsp, the Etiologic Mutation Responsible for Fibrous Dysplasia/McCune-Albright Syndrome: qHTS | 0.13% of 340,000 active | AID 624287, 2012 | gsp mutant cells, cAMP HTRF, 30 min; control for the full effect not named in the record | Potency, µM (highest dose often 76.9 µM), without a hit: at the top dose activation (cAMP increase), hits mostly activators; active = well fitted activation curve with a large enough effect; inconclusive = small, poorly fitted or top-dose-only effect, or another doubt; inactive = no such curve, though single readings can be large or run the other way; cell line not stated here;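 further: phosphodiesterase inhibitor Ro 20-1724 added with compounds to block cAMP breakdown; potency means the concentration at half of the fitted maximal effect; nearly all actives have a fitted effect of over 60% in size; about a fifth of the inactives were tested at one dose only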
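Cells in DMEM/10% FBS with G418 were pretreated with compounds in DMSO plus […] (300 uM stock) for 30 min at 37C. cAMP was measured by HTRF (cAMP-d2 plus anti-cAMP antibody-K) after 30 min at room temperature.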
Sfp PPTase inh = qHTS Assay for Inhibitors of Bacillus subtilis Sfp phosphopantetheinyl transferase (PPTase). 3.5% of 310,000 active. Potency, µM, without a hit: max response, negative = inhibition, actives largely listed as inhibitors. 4'-phosphopantetheinyl transferase ffp (Bacillus subtilis), Q9F4F7. Biochemical Sfp PPTase activity, qHTS; active means well fitted inhibition curve with a large enough effect; inconclusive means small, poorly fitted or top-dose-only effect, or another doubt; inactive means no such curve, though single readings can be large or run the other way;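 further: the enzyme is Sfp with the accession as filed and its product quenches rhodamine fluorescence; potency means the concentration at half of the fitted maximal effect; 0% = enzyme reaction without inhibitor and -100% = no enzyme wells; top concentration of the series not given in the record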
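Reaction rates are the 30-min fluorescence difference (ex 525, em 598 nm) in wells containing 15 nM Sfp, 5 uM rhodamine-CoA and 12.5 uM BHQ-2-YbbR at pH 7.6 with 10 mM MgCl2.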
gsp antag = qHTS for Antagonists of gsp, the Etiologic Mutation Responsible for Fibrous Dysplasia/McCune-Albright Syndrome: qHTS. 0.4% of 340,000 active. Potency, µM (titrated, usually from 76.9 µM), for inactives: top-dose activity change, negative = inhibition, usual class: inhibitors. AID 624288, 2012. gsp-mutant cells, cAMP HTRF, 30 min; control for the full effect not named in the record; active = falling curve of any shape with a large fitted effect; inconclusive = falling curve, mostly with a smaller effect; inactive = flat or rising curve; cell line not stated here;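 further: intracellular cAMP measured with PDE inhibitor Ro 20-1724 present during compound exposure; potency means the concentration at half of the fitted maximal effect; on the % scale 0 is the no-effect control and ±100 the full control effect; nearly all actives have a fitted effect of over 65% in size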
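HTRF cAMP read-out (cAMP-d2 plus anti-cAMP antibody-K in lysis buffer, 30 min RT). Before lysis, cells are exposed to compounds with […] for 30 min at 37C in DPBS containing Ca/Mg, BSA and Tween 20.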
Numbers without * were called inactive; ? = inconclusive; . = not tested or not shown; [ ] = dose if it differs, or a comment.

Results follow in this order: TRPML1 blocker	Menin-MLL FL inh	TRPV1 PAM	ClpP mod	gsp ag	Sfp PPTase inh	gsp antag
1) COc1ccc(OCC(=O)Nc2ccc(N3CCC(C)CC3)cc2)cc1
  -6	-3.0	1	0.1%	-26%	7%	3%
2) NS(=O)(=O)c1cccc(NC(=O)COC(=O)c2ccccc2SCC(=O)N2CCCC2)c1
  4	.	.	-7.0%	2%	.	3%
3) Cc1ccc(S(=O)(=O)NNC(=O)c2ccc(F)cc2)cc1
  .	2.4	4	-1.0%	15%	4%	10%
4) Cc1ccc(NC(=O)COc2ccccc2C#N)cc1S(=O)(=O)N1CCCCCC1
  6	.	0	-1.0%	-5%	.	-15%
5) CCOC(=O)c1cccc(N2C(=O)Nc3ccccc3N2O)c1
  -11	0.9	1	0.8%	-40%[inhibitor]	27%	7%
6) Cc1cc(/C=C2/C(=N)N3C(=NC2=O)SN=C3S(C)(=O)=O)c(C)n1-c1ccccc1
  -13	?	28	.	3%[15.4 µM]	-6%	-18%
7) COc1ccccc1NS(=O)(=O)c1cccc(C(=O)NNC(=O)C(C)NC(=O)c2ccco2)c1 (stereo not drawn)
  -6	.	.	0.5%	-6%	.	3%
8) CCn1cc(CN2CCN(Cc3ccsc3)C(CCO)C2)cn1 (stereo not drawn)
  2	-1.8	-3	.	27%	20%	11%
9) Cc1csc(NC(=O)CSc2nnc(-c3ccoc3C)o2)n1
  0	-0.2	-2	2.4%	?	-15%	-2%
10) Cc1nc(-c2nc(-c3c(C(=O)NNC(=O)Nc4cccc(Cl)c4)noc3C)cs2)cs1
  -9	4.5	20	0.1%	-4%[15.4 µM]	-17%	?
11) C=CCn1c(O)c(N=NC(=S)Nc2cccc(C)c2)c2ccccc21
  26	5.5	8	0.5%	-2%	-10%	11%
12) N#C/C(=C\c1cccnc1)C(=O)Nc1ccc(Cl)cc1
  19	4.5	9	0.7%	?	7%	-7%
13) Cc1cc(OCCCCOc2ccc(S(N)(=O)=O)c(C)c2)ccc1S(N)(=O)=O
  -19	-3.5	-10	-1.9%	13%	3%	?
14) COc1cc(/C=C/C(=O)OCC(=O)NC(=O)NC(C)(C)C)cc(OC)c1OC
  -10	3.3	2	0.3%	13%[15.4 µM]	21%	-11%
15) CC1Cc2ccccc2N1C(=O)CN(C)CC(=O)Nc1cccc(F)c1 (stereo not drawn)
  12	.	1	-0.9%	-15%	.	-4%
16) COc1ccc2c(c1)CCCC21NC(=O)N(CC(=O)c2cc(F)ccc2F)C1=O (stereo not drawn)
  -6	.	-13	0.0%	-1%	.	-3%
17) Cc1cccc(NC(=O)c2sc(NC(=O)COc3ccccc3)c(C#N)c2C)c1C
  -1	-0.7	6	-3.8%	13%	9%	5%
18) CCOC(=O)c1cnc(N)nc1-c1ccccc1
  5	.	.	-0.9%	-12%	.	-1%
19) O=C(COc1ccccc1O)NNc1ccccc1
  19	4.2	27	.	-2%[15.4 µM]	7%	7%
20) O=C(CN1CCOc2ccccc21)N1CCN(c2cccc(Cl)c2)CC1
  13	.	.	-0.2%	-12%	.	-7%
21) CC1C(C#N)=C(N)OC2=C1C(=O)CC(c1ccccc1)C2 (stereo not drawn)
  8	7.2	10	3.0%	30%	8%	-9%
22) Cn1c(=O)n(C)c2cc(/C=N/NC(=O)c3ccncc3)ccc21
  .	4.0	-16	.	.	19%	.
23) C[C@H](NC(=O)COc1ccccc1)C(=O)OCC(=O)c1cc2ccccc2o1
  -8	.	.	.	-20%	.	-6%
24) CC1CC(=O)Nc2ccccc2N1C(=O)COc1ccc2cc(Br)ccc2c1 (stereo not drawn)
  -10	.	0	-2.7%	25%	.	-7%
25) CN(Cc1ccccc1)C(=O)c1cccc(NC(=O)Cc2ccc(NC(=O)C3CCCN(C(=O)C4CCCCC4)C3)cc2)c1 (stereo not drawn)
  51	.	.	-0.5%	.	.	?
26) CC(=O)Nc1cc(-c2nn3c(C)nnc3s2)ccc1C
  -11	4.3	.	-17%	18%	-3%	8%
27) CCOC(=O)C1(Cc2cccc(OC)c2)CCN(Cc2cnc(N)nc2)CC1
  12	0.0	-6	.	15%[15.4 µM]	17%	12%
28) O=C(NCc1ccc(F)cc1)C1CCCN(C(=O)Nc2ccccc2)C1 (stereo not drawn)
  -2	4.3	1	0.1%	17%	15%	6%
29) Cc1cc(C)c(S(=O)(=O)c2cccc(Br)c2C)c(=O)[nH]1
  -11	5.1	-11	-3.2%	-3%[15.4 µM]	27%	-23%
30) CC(C)(CN1CCc2ccccc2C1)NS(=O)(=O)c1ccccc1
  41	8.0	4	.	10%[15.4 µM]	-17%	-2%
31) CC(=O)O[C@@H]1[C@@H](O)CN[C@@H]1Cc1ccccc1
  31	-1.2	.	.	.	-9%	.
32) C[C@@H]1CN([C@H](C)CO)C(=O)CCCn2cc(nn2)CO[C@H]1CN(C)C(=O)CCC(F)(F)F
  -6	.	.	-2.2%	-44%[inhibitor]	.	.
33) O=C(Nc1cc(Cl)ccc1F)C1=COCCO1
  2	.	-11	.	0%[15.4 µM]	.	8%
34) COc1ccc(C(=O)NCc2ccc(C)cc2)cc1S(=O)(=O)N1CCOCC1
  -5	.	.	-0.4%	-93%[inhibitor]	.	.
35) Cc1nn(CC(=O)NCCc2ccccc2)c(=O)c2cc3occc3n12
  22	.	19	-3.0%	?	1%	3%
36) O=C(CN(C(=O)CCC(=O)Nc1nccs1)c1ccccc1F)NCc1ccccc1
  -8	-4.9	25	.	-13%[15.4 µM]	17%	-8%
37) O=C(CN(CCc1ccccc1)S(=O)(=O)c1ccc(Cl)cc1)N/N=C/c1ccc2c(c1)OCO2
  24	-2.3	0	-12%	4%	-28%	-9%
38) CCCCCCNC(=O)Cc1c(O)c2ccccc2[nH]c1=O
  15	4.0	10	28µM*	?	-31%	1%
39) COC(=O)c1ccc(C(c2c(C)n(C)n(-c3ccccc3)c2=O)c2c(C)n(C)n(-c3ccccc3)c2=O)cc1
  4	-1.7	7	0.8%	-4%	11%	11%
40) O=C(NCc1ccccc1)c1ccccc1CO
  19	-4.2	-4	-1.5%	-42%[inhibitor]	2%	8%

Pulled by compound from above:
Results follow in this order: TRPML1 blocker	Menin-MLL FL inh	TRPV1 PAM	ClpP mod	gsp ag	Sfp PPTase inh	gsp antag
33) O=C(Nc1cc(Cl)ccc1F)C1=COCCO1
  2	.	-11	.	0%[15.4 µM]	.	8%
22) Cn1c(=O)n(C)c2cc(/C=N/NC(=O)c3ccncc3)ccc21
  .	4.0	-16	.	.	19%	.
29) Cc1cc(C)c(S(=O)(=O)c2cccc(Br)c2C)c(=O)[nH]1
  -11	5.1	-11	-3.2%	-3%[15.4 µM]	27%	-23%

(cont.)
Results follow in this order: TRPML1 blocker	Menin-MLL FL inh	TRPV1 PAM	ClpP mod	gsp ag	Sfp PPTase inh	gsp antag
41) CCc1ccc2[nH]c(=O)c(CN(Cc3ccccc3)Cc3nnnn3Cc3ccco3)cc2c1
  5	14	-3	-10%	-81%[inhibitor]	18µM*	-16%
42) O=C(CC(c1ccccc1)c1ccccc1)NCc1cccnc1
  -4	-1.4	?	1.3%	1%	14%	-4%
43) COc1cc2c(oc(=O)c3cc(C)cc(OC)c32)c2c(C3OC(C)C(O)C(C)(O)C3O)ccc(O)c12 (stereo not drawn)
  27	.	.	-6.7%	2%	.	-20%
44) COC(=O)C1=C(\O)CCCC/C=C\1C(=O)O
  21	.	.	-2.4%	5%	.	-11%
45) CC(=O)Oc1ccc(C(=O)Nc2nnc(C)s2)cc1
  -19	-2.5	-5	-1.8%	0%	-2%	?
46) COc1cccc(/C=N/NC(=O)c2[nH]nc3c2CCc2ccccc2-3)c1
  8	2.4	-7	.	-8%[15.4 µM]	3%	20%
47) CCOc1cc(-c2nc(-c3ccc(C)nc3OC)no2)cc(OCC)c1OCC
  -9	2.5	0	-11%	13%	7%	5%
48) CCOC(=O)c1sc(NNC(=O)c2ccc(F)cc2)nc1C
  26	1.7	5	-0.7%	4%[15.4 µM]	6%	-2%
49) NC(=O)[C@@H]1CCOc2c(I)cc([N+](=O)[O-])cc2C(=O)N[C@@H](CO)C(=O)NCC(=O)N1
  11	0.1	-5	2.3%	-23%	9%	10%
50) COc1cc(C(c2c(C)[nH][nH]c2=O)c2c(C)[nH][nH]c2=O)ccc1OC(=O)c1ccccc1OC
  4	.	2	-1.0%	.	.	.
51) O=C1CCCCC1Nc1ccc2ccccc2c1 (stereo not drawn)
  -15	.	.	.	?	.	-3%
52) COc1ccc(C(=O)Nc2cccc(C)c2)cc1
  15	2.1	-21	-4.4%	1%	7%	8%
53) CCCOc1ccc(C(=O)Nc2ccc(S(=O)(=O)Nc3onc(C)c3C)cc2)cc1
  6	-1.0	1	.	15%	8%	-17%
54) CCC1(C(=O)NC(=Nc2ccccc2)Nc2ccccc2)CCOC1=O (stereo not drawn)
  11	.	.	0.8%	-1%[15.4 µM]	.	7%
55) C/C(=N\Nc1cc(N2CCOCC2)ncn1)c1cccc([N+](=O)[O-])c1
  12	-0.6	3	1.6%	-52%[inhibitor]	21%	3%
56) Cc1cc(NC(=O)Nc2ccc(OCc3ccccc3)cc2)n(C)n1
  50	-5.3	17	-1.7%	16%[15.4 µM]	-2%	-24%
57) COc1cc(C(=O)N2CCN(CC(O)COc3ccccc3)CC2)cc(OC)c1OC (stereo not drawn)
  11	.	.	0.6%	9%[15.4 µM]	.	7%
